Bioassay records from PubChem BioAssay.
RN4220 kill – growth inhibition of S. aureus RN4220, primary screen, OD600; 16 h; inhibition, % (concentration not given with the values); 0.33% of 330,000 active; AID 1259311, 2017;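 active = z-score of -3 or lower and OD600 up to 0.18 on both plates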;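 also: plate controls were untreated cells for no effect and reference antibiotic for full effect; stock transfer was 100 nL into about 80 µL; one replicate is shown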
ugtP null kill – growth inhibition of ugtP-null S. aureus, primary screen, RN4220 ugtP deletion, OD600; 0.54% of 330,000 active; 16 h; some inactives read as strong as hits; growth inhibition, % (test concentration not listed);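 active = z-score under -3 and OD600 up to 0.15 on both plates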;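 also: plate controls were untreated wells for no effect and antibiotic for full effect; wells of about 80 µL received 100 nL stock; the first replicate is given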
Bead autofluor – compound fluorescence in toxin protease inhibitor counterscreen | compound autofluorescence counterscreen, microsphere flow cytometry; active compounds read high | fluorescence intensity (test concentration not listed) | 3.1% of 360,000 active | AID 624483;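 active = at least 3 SD above the mean of all compounds, about 16000 in these data; inconclusive = too few beads counted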;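 also: 100 nL of 1 mM stock went into each well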
BJeLR viability – MLPCN primary cell-based screen for lethality selective to Ras in HRASV12 cells | inhibition, % (no concentration beside the values) | 0.17% of 300,000 active | BJeLR (HRASV12) viability, CellTiter-Glo ATP luminescence, 48 h; reference of the scale not given here;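 active = replicate mean above 50%; inconclusive = above 50% but judged a plate artefact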;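 also: 50 nL library stock added to about 25 µL; numbers are from one replicate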
PrP UTR inh – inhibition of PrP 5' UTR reporter expression. inhibition, % (no concentration beside the values). cell-based PrP 5' UTR mRNA reporter, plate reader. 0.35% of 340,000 active;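 active = every replicate at 50% or more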;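 also: 0 = median of the neutral control wells; tested in H4 reporter cells; numbers are from one replicate; inactives centre near -14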
Mtb hypoxia inh – PubChem AID 1159583; 0.1% of 300,000 active; M. tuberculosis hypoxia-regulated fluorescent reporter, fluorescence; fluorescence inhibition, % (concentration not given with the values);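 active = 35 to 45% if threefold the growth effect, above 45% if 1.5-fold the growth effect; inactive = the rest, general growth blockers included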;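 also: wells of about 50 µL received 100 nL stock; 0% = vehicle wells and 100% = reference inhibitor wells; whole bacteria with a GFP reporter of the hypoxia response; strong numbers were not always called active; many hits fall short of the cut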
Mtb hypoxia inh growth – second read-out of Mtb hypoxia inh, no call of its own (marks repeat the call); growth inhibition, %; measured here: M. tuberculosis growth (absorbance);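 0% = vehicle and 100% = reference antibiotic; read after six days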
Active calls of the source: *; ? = inconclusive; . = no result given.

item	compound	RN4220 kill	ugtP null kill	Bead autofluor	BJeLR viability	PrP UTR inh	Mtb hypoxia inh	Mtb hypoxia inh growth
1	COc1ccc(/C(C)=N/OCC(=O)N2CC3(C)CC2CC(C)(C)C3)cc1 (stereo unspecified)	.	.	9272	-6	-44	.	.
2	O=C(c1cc2cc3ccc(Cl)cc3nc2o1)N1CCCCCC1	5.8	6	5866	8	-49	4	4
3	O=C(CSc1nnnn1-c1ccccc1)N1CCN(C(=O)c2ccco2)CC1	-6.2	-2	3050	-1	4	5	7
4	CCOc1ccccc1NC(=O)c1ccc(NC(=O)C2CCCO2)cc1 (stereo unspecified)	1.5	10	5662	7	-2	-1	-11
5	Cc1ccc(NC(=O)c2nc(S(=O)(=O)Cc3ccccc3C)ncc2Cl)cc1C	.	.	4150	27	-8	.	.
6	O=C(COc1cccnc1[N+](=O)[O-])NCc1ccc2c(c1)OCO2	0.9	0	4453	-6	-11	-2	10
7	CC(=NNC(=O)c1nnn(-c2nonc2N)c1-c1ccc2c(c1)OCO2)c1cccs1	2.1	5	.	.	.	2	-3
8	Cc1ccc(S(=O)(=O)Oc2ccc(/C=N/NC(=O)c3ccncc3)cc2)cc1	.	.	5622	-4	-8	.	.
9	Cc1ccc(/C=C/c2nc3ccccc3c(=O)n2CCc2ccccc2)cc1	-3.5	1	2775	7	-14	1	7
10	CCN(CC)CCCNC(=O)CN1N=C(c2ccc(OC)cc2)CCC1=O	1.9	6	3627	1	19	-10	1
11	c1ccc(N(c2ccccc2)c2nc(N3CCCC3)nc(-n3ccnc3)n2)cc1	-8.5	-15	6465	-15	-14	13	26
12	CCOc1ccc(NC(=O)C(=O)NN=Cc2ccc(CNS(=O)(=O)c3ccccc3)o2)cc1	3.2	-8	.	.	.	1	7
13	COc1cccc(NC(=O)NCCCN2CCN(c3ccc(F)cc3)CC2)c1	-2.9	7	2282	2	-4	.	.
14	CCc1n[nH]c(=S)n1N=Cc1cc(Br)c(O)c(OC)c1	0.6	11	.	.	.	-1	6
15	Cc1ccccc1C(NC(=O)OC(C)(C)C)C(=O)OC(C)(C)C (stereo unspecified)	2.6	6	.	.	.	3	6
16	CCN(CC)S(=O)(=O)c1ccc(NC(=O)CN(c2cccc(F)c2)S(C)(=O)=O)cc1	0.7	1	6517	-8	-22	5	-1
17	COc1cc(CN2CCNC(=O)C2CC(=O)N2CCc3ccccc3C2)cc(OC)c1 (stereo unspecified)	4.9	5	2540	-5	-16	-6	-7
18	O=C(NCc1ccc(Cl)cc1)c1cc2ccccn2n1	-13	-16	5601	0	3	14	17
19	Cc1occc1-c1nnc(SCC(=O)NCCc2ccccc2)n1Cc1ccccc1	-1.0	3	4725	2	-11	.	.
20	O=C(NCC1(N2CCCCC2)CCCCC1)c1cccc(NS(=O)(=O)c2ccccc2)c1	2.4	9	?	-6	-16	11	2
21	C=CCSc1ncccc1C(=O)NCc1ccc(C)cc1	5.8	-1	19941*	6	-35	15	10
22	CCc1ccccc1NC(=S)N1N=CCC1c1ccccc1 (stereo unspecified)	.	.	2207	-2	-25	.	.
23	Cc1cc(C)n2c(SCc3ccccc3Cl)nnc2n1	-1.0	10	4850	-7	-50	.	.
24	COCC(=O)OCC(=O)c1cc(C)n(-c2ccc(Br)cc2)c1C	2.0	0	4200	2	-16	6	1
25	Cc1cc(NN=Cc2cccc(Cl)c2)nc(-n2nc(C)cc2C)n1	14	-6	.	.	.	8	8
26	C/C(Cl)=C\Cn1c(O)c(N=NC(N)=S)c2cc(Br)ccc21	17	-22	4251	-1	5	-12	1
27	CC(NC(=O)C1CC2CCCC(C1)C2=O)c1ccccc1 (stereo unspecified)	4.6	-1	2652	3	-19	.	.
28	COc1cccc(C(C)NC(=O)C2CCCC2)c1 (stereo unspecified)	1.4	5	3122	3	-6	9	1
29	Cc1ccc(Nc2nc(NCC3CCCO3)nc(N)c2[N+](=O)[O-])cc1C (stereo unspecified)	8.3	-7	2250	-22	-7	7	3
30	CCN(CC)C(=O)c1sc(N2C(=O)Nc3ccccc3N2O)c(C(=O)OC)c1C	1.3	6	2629	1	-14	12	10
31	CCn1nnc2cc(C(=O)N3CCC(C(=O)OC)CC3)ccc21	2.9	3	4292	.	-17	9	11
32	CN1CCN(CC(=O)N2N=C(c3cccs3)CC2c2ccco2)CC1 (stereo unspecified)	2.4	-4	2734	12	-9	-11	5
33	CCc1nc(SCc2ccc(C(=O)OC)o2)c2c(=O)n(C)c(=O)n(C)c2n1	-9.9	3	5212	-5	-5	8	5
34	COc1cccc(C(C)=NNc2ccc(S(=O)(=O)N3CCCCC3)cn2)c1	-2.8	-11	.	.	.	2	-8
35	Cc1nc(Cc2ccc(OC(C)C)cc2)[nH]c(=O)c1CC(=O)O	5.2	4	3912	-7	-40	15	4
36	Cc1nc(C(F)(F)F)c(C(=O)N/N=C(\N)c2cccnc2)s1	.	.	4762	-5	-32	.	.
37	Cc1ccccc1-n1cc(CNC(=O)CCc2nnc(CCc3ccccc3)o2)cn1	4.1	10	4563	-1	-7	-7	5
38	CCC(CC)NC(=O)C1CCN(S(=O)(=O)c2cccs2)CC1	6.4	-7	23956*	3	-23	5	14
39	CCOc1ccccc1CN1CCN(Cc2ccc(C)o2)CC1CCO (stereo unspecified)	-0.3	11	2219	5	-32	2	5
40	Cc1c(C(=O)OCC(=O)N2CCCC2)cccc1[N+](=O)[O-]	-1.0	3	5868	-12	2	6	19
41	Cc1cc2c(cc1S(=O)(=O)N1CCN(c3ccc(Cl)cc3)CC1)OCCN2C	-20	-14	6902	14	-29	-1	10
42	CC(=O)O[C@H]1CCC2C3CCC4=CC(=O)CCC4=C3C=C[C@@]21C (stereo partly specified)	1.4	7	3441	-7	-29	10	7
43	O=c1c(Cc2ccc(Cl)cc2)c(O)ccn1Cc1ccncc1	8.3	-7	4403	0	-43	-1	14
44	CCN(CC)c1ccc(CC(=O)NC(C)Cc2ccccc2)cc1 (stereo unspecified)	12	0	3378	-5	9	-4	4
45	O=C(NN1C(=O)C2C3CCC(O3)C2C1=O)c1ccc(Cl)cc1 (stereo unspecified)	3.5	0	7072	5	-13	-5	-7
46	CC(OC(=O)c1cc(S(=O)(=O)N2CCOCC2)ccc1F)C(=O)NCc1ccc2c(c1)OCO2 (stereo unspecified)	4.0	6	?	1	-24	15	6
47	Cc1cccn2cc(-c3cccc(S(=O)(=O)N4CCCCC4)c3)nc12	8.1	10	4527	6	-14	-3	5
48	CCOC(=O)CC1c2cc(F)ccc2S(=O)(=O)N1C(C)C (stereo unspecified)	4.4	-11	.	.	.	11	9
49	COc1ccc2oc(C(=O)N(Cc3ccco3)Cc3cccs3)c(C)c2c1	-0.7	36	?	-3	-35	-4	5
50	COc1ccc(-c2cc(C(=O)Nc3ccc(S(=O)(=O)Nc4onc(C)c4C)cc3)c3ccccc3n2)cc1OC	6.7	6	3633	13	-19	24	19
51	COc1cc(NC(=O)c2ccccc2)c(OC)cc1NC(=O)CSc1[nH]c(=O)cc(C)c1C#N	1.2	-4	3520	28	-30	2	0
52	CC(C)CNC(=O)c1cc2nc3c(c(C(F)(F)F)n2n1)CCc1ccccc1-3	7.5	0	.	4	-10	10	9
53	CCOc1ccc(C(=O)Nc2ccc(C(F)(F)F)n(C)c2=O)cc1	7.7	7	2620	3	1	-4	-3
54	O=[N+]([O-])c1ccc([C@H](O)[C@H](CO)N=Cc2ccccc2O)cc1	-3.2	-8	3453	1	-22	7	13
55	Cc1ccccc1Cn1c(=O)n(CCCC(=O)NCc2ccco2)c(=O)c2ccccc21	-1.3	-2	2698	4	-20	.	.
56	N#C/C(=C/c1ccc(C(=O)O)cc1)C(=O)NCc1ccccc1	7.0	8	17589*	-1	-12	6	3
57	CN1CCC(N(C)S(=O)(=O)c2ccc(NC(=O)COc3ccc(F)cc3)cc2)CC1	0.2	1	8243	7	-23	6	0
58	COc1cccc(C(=O)ON=C(C)c2cnccn2)c1	11	5	.	.	.	5	4
59	O=S(=O)(Cc1ccc(Cl)cc1)Nc1ccc2c(c1)OCO2	2.1	-4	12904	-1	-13	3	6
60	Nc1nc(-c2ccc(-c3ccccc3)cc2)cs1	0.5	19	4540	10	-75	-5	5

One compound at a time, as listed above. Screens in order: RN4220 kill	ugtP null kill	Bead autofluor	BJeLR viability	PrP UTR inh	Mtb hypoxia inh	Mtb hypoxia inh growth
`Cc1ccccc1-n1cc(CNC(=O)CCc2nnc(CCc3ccccc3)o2)cn1` is entered as 4.1	10	4563	-1	-7	-7	5
`COc1cccc(C(C)=NNc2ccc(S(=O)(=O)N3CCCCC3)cn2)c1` is entered as -2.8	-11	.	.	.	2	-8
`Cc1cccn2cc(-c3cccc(S(=O)(=O)N4CCCCC4)c3)nc12` is entered as 8.1	10	4527	6	-14	-3	5
`COc1ccc(-c2cc(C(=O)Nc3ccc(S(=O)(=O)Nc4onc(C)c4C)cc3)c3ccccc3n2)cc1OC` is entered as 6.7	6	3633	13	-19	24	19

Next part.
item	compound	RN4220 kill	ugtP null kill	Bead autofluor	BJeLR viability	PrP UTR inh	Mtb hypoxia inh	Mtb hypoxia inh growth
61	CCOc1ccc(N2C(=O)C3Sc4[nH]c(=O)sc4C(c4ccc(OC)c(OC)c4)C3C2=O)cc1 (stereo unspecified)	1.6	-3	4131	-7	-6	7	0
62	COC(=O)C1=C(C)N(C)C(=O)/C1=C\c1ccco1	3.8	2	4543	-1	-9	3	7
63	Cc1onc(-c2ccccc2Cl)c1C(=O)NCc1cccs1	3.3	-2	2632	10	-14	8	7
64	CC(C)NC(=O)C1CCN(C2CCN(Cc3cn[nH]c3-c3ccccc3)CC2)CC1	6.1	-4	3620	-3	-28	11	3
65	CN(Cc1c(F)cccc1Cl)C(=O)C1=CC=CN2CCS(=O)(=O)N=C12	7.9	13	?	.	-20	16	2
66	CCOc1ccc(N(CC(=O)NC(C(C)C)C(C)C)S(=O)(=O)c2ccc(OC)c(OC)c2)cc1	0.6	4	3278	5	-19	3	7
67	CCCCOc1ccc(N2C(=O)CC(NCCc3ccc(S(N)(=O)=O)cc3)C2=O)cc1 (stereo unspecified)	-5.9	4	4176	-15	-3	-3	-9
68	COc1ccccc1NC(=O)C(C)N(C)CC(=O)Nc1cccc2ccccc12 (stereo unspecified)	6.6	5	3464	.	-24	17	8
69	CC(=O)Nc1ccc(S(=O)(=O)N2CCC(c3nc4c(nnn4Cc4ccccc4Cl)c(=O)[nH]3)CC2)cc1	3.7	1	4327	-2	-10	-10	3
70	N#C/C(=C\c1ccccc1)C(=O)NC1CC1	2.2	0	3093	-2	-9	10	-4
71	CC(C)(C)S(=O)(=O)C(C#N)=NNc1ccc(S(C)(=O)=O)cc1	8.0	-4	.	.	.	6	-5
72	CCCNC(=S)N1CCC(C(=O)c2ccc(OC)cc2)CC1	6.4	3	2555	-8	-5	0	-1
73	CCC(CC)c1nnc(NC(=O)c2cc(C(=O)OC)cc([N+](=O)[O-])c2)s1	8.4	-4	2175	-9	-12	0	4
74	CCCc1cc(=O)oc2cc(C)cc(OCC(=O)Nc3ccc(S(N)(=O)=O)cc3)c12	1.9	8	4239	-2	-2	1	-7
75	CCN(C(=O)Cc1ccc(Br)cc1)C1CCCCC1	2.4	-2	2673	1	0	.	.
76	COc1ccc(N(C)S(=O)(=O)c2cccc(C(=O)Nc3ccc(-n4cnnn4)cc3)c2)cc1	-0.6	-8	4585	2	-5	-10	13
77	O=C1Cn2c(nc3ccccc32)-c2ccccc2N1	3.8	8	8016	0	-5	13	11
78	CN1CCN(c2ccccc2NC(=O)c2ccccc2F)CC1	-0.1	-11	4198	6	-20	-4	-4
79	CC(=O)OCCN(Cc1ccccc1)Cc1ccc2c(c1)OCO2	2.8	2	10951	-3	-6	0	9
80	Cc1ccc(C(=O)NNC(=O)CCCN2C(=O)C(=Cc3ccccc3Cl)SC2=S)cc1	3.9	-3	.	.	.	7	9
81	CCCc1cc(=O)oc2cc(OCC(=O)NCCCn3ccnc3)ccc12	-2.3	-1	5582	3	9	-1	13
82	Cc1ccccc1-c1coc2cc(O)ccc2c1=O	1.8	2	4807	.	-16	.	.
83	COc1ccc(/C=C/C(=O)Nc2sc(Cc3ccccc3)c(C)c2C(N)=O)cc1	.	.	1939	-9	-2	.	.
84	Cc1cnc(C(=O)Nc2ccc(C(C)C)cc2)cn1	-2.0	-2	3899	-20	23	6	8
